# TRPML1 agonist – agonists of human TRPML1 channel | Q9GZU1 | TRPML1-expressing cells, Ca2+ dye fluorescence, FDSS; host cell line not named in the record; reference of the full effect not given here | activation, % (concentration not given with the values) | actives 0.12% (n = 410,000); in the data active = activation above about 50%; inconclusive = about 30% to 50%; inactive = below about 30%; also: 0% is about no effect; the text of the record puts the active cut at 80%
# Target sequence (Q9GZU1 whole entry, looked up): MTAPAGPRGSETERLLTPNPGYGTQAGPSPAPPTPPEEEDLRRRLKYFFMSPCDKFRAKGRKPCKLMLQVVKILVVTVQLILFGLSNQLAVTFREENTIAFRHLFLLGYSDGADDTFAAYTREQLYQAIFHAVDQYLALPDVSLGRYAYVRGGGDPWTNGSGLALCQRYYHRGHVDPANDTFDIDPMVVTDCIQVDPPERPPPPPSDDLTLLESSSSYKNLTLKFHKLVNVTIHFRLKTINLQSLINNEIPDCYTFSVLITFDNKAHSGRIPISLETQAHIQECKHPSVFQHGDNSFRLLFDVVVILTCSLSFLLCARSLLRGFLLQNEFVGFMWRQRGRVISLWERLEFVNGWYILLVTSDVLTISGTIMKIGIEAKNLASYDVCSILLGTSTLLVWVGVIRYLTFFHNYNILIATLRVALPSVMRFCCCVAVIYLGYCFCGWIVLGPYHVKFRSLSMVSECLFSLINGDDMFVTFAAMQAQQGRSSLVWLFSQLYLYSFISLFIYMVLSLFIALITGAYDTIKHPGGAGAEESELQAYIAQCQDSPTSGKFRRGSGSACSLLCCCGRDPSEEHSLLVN
#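 Agonist activity was taken from a 110 s kinetic Ca2+ dye read on the FDSS after pinning compounds onto TRPML1-DL cells. The cells were seeded at 1,500/well with Tet inducer, incubated about 16 h, then dye-loaded at room temperature.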
# ClpP mod – qHTS Assay for Activators of ClpP; ATP-dependent Clp protease proteolytic subunit (Bacillus subtilis (strain 168)), P80244; purified B. subtilis ClpP, FRET peptide cleavage, 20 min; Potency, µM (series often up to 57.5 µM), without a hit: at the top dose activity change, negative = active; actives 1.9% (n = 340,000); AID 651965, 2013; active = well fitted falling curve with a large enough effect; inconclusive = small, poorly fitted or top-dose-only effect; inactive = no such curve, though single readings can be large or run the other way; also: potency is read from the fitted curve at half-maximal effect; the source files actives as falling curves though it sought activators and does not explain the sign; nearly all actives have a fitted effect of over 65% in size; many hits overshoot -100%
# Target sequence (P80244 whole entry, looked up): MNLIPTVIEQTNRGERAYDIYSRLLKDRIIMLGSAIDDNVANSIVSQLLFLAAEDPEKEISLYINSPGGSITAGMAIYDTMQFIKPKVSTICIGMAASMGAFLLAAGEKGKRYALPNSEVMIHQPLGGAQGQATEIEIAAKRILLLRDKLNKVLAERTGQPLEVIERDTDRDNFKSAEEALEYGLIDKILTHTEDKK
#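 Purified B. subtilis ClpP, 10 microg/mL final in Tris/HCl pH8 with KCl, BSA, glycerol and Tween-20, cleaved an Abz/nitrotyrosine-quenched decapeptide. Fluorescence (ex 320, em 430) was read at 0 and 20 min at room temperature. Delta was normalized to 5.8 microM ADEP and DMSO/no-enzyme controls.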
# * marks the source's active call; other numbers are inactive results; ? = inconclusive. Not all compounds are listed. The share of hits here may be higher or lower than overall.
SMILES,TRPML1 agonist,ClpP mod
CC(C)CC(NC(=O)OCc1ccccc1)C(=O)NC(Cc1c[nH]c2ccccc12)C(=O)O (stereo not given),-0.9,-1.2%
CC1(C(=O)NS(=O)(=O)Cc2cccc(Cl)c2)CCN1C(=O)CCc1cccs1 (stereo not given),0.3,-2.4%
CCCN1CNc2c(c(=O)[nH]c(=S)n2CCc2c(OC)cccc2OC)C1,-0.4,-0.8%
Cc1cccc(C)c1Cn1c(C)c(C(=O)NCc2ccc([N+](=O)[O-])cc2)sc1=O,6.8,-1.8%
Cc1ccc(Cc2c(-c3ccccc3)nc3cc(C)c(Br)c(C)n23)cc1,0.0,-1.9%
O=C(NN1CCCCC1)NN1CCCCC1,-0.3,-0.2%
CCCN1CCC(C(=O)NC(c2ccc(Cl)cc2)c2ccsc2)CC1 (stereo not given),1.0,-0.2%
CC(C)CC(N)c1csc(Nc2ccc(C(F)(F)F)cn2)n1 (stereo not given),0.9,?
Clc1cccc(-c2nc3c4ccccc4ccn3c2Cc2ccsc2)c1,0.3,?
CC1(C)OC(=O)C2=C(C[C@@H](C3CCCCC3)O[C@@H]2c2ccc(Cl)cc2)O1,0.7,-0.1%
CC1(Cc2ccc(F)cc2)C(=O)Nc2c(Cl)ccc(Cl)c21 (stereo not given),0.1,0.0%
CC(N)c1csc(Nc2ccc(C(=O)NCCO)cc2)n1 (stereo not given),-0.5,-9.3%

# Whole records, looked up by structure:
# CCCN1CNc2c(c(=O)[nH]c(=S)n2CCc2c(OC)cccc2OC)C1 as listed: TRPML1 agonist = -0.4; ClpP mod = -0.8%
# CC(N)c1csc(Nc2ccc(C(=O)NCCO)cc2)n1 (stereo not given) as listed: TRPML1 agonist = -0.5; ClpP mod = -9.3%

# Further compounds follow.
SMILES,TRPML1 agonist,ClpP mod
CCCCNC(=O)C1(C)CCN1C(=O)c1cc2ccccc2s1 (stereo not given),-1.0,-3.4%
CCOC(=O)C1(C)CCCN(C(=O)c2cccc3ccccc23)C1 (stereo not given),-1.1,-0.4%
COc1ccc(C(=O)N2CCCCC2c2cc(C(=O)Nc3ccc(OC)cc3C)no2)cc1 (stereo not given),-0.2,-3.0%
C[C@H](c1ccccc1)N1C[C@H](COCc2ccccc2)Oc2cc(N3CCC[C@H]3C(N)=O)ccc2S1(=O)=O,0.5,-8.2%
O=S1(=O)N[C@@H](Cc2ccccc2)COc2cc(N3CC[C@H](O)C3)ccc21,-0.8,-0.2%
COC(=O)c1ccc(Cn2c(C)c(C(=O)NCc3ccc([N+](=O)[O-])cc3)sc2=O)o1,3.4,0.4%
O=C1NC[C@H](Cc2ccc(O)cc2)N(CCc2cccc(F)c2)C1=O,0.8,-2.0%
CSc1ccc(CN2CCC(C)(Oc3ccccc3)C2)cc1 (stereo not given),-0.6,1.3%
COc1ccc(Cn2cc(CN3CC(N4CCCC4)CS3(=O)=O)nn2)cc1 (stereo not given),-0.2,0.1%
CN(C)CCN1CCN(C2CN(Cc3cn(Cc4ccc(Cl)cc4)nn3)S(=O)(=O)C2)CC1 (stereo not given),-0.9,2.6%
COc1cccc(-c2sc3ccc(OC)cc3c2-c2cnc(N3CCOCC3)nc2)c1,-0.4,?
CCCNC(=O)C1(C)CCCN(CC(=O)c2ccccc2OC)C1 (stereo not given),-0.6,-8.4%
COc1cc(Cn2c3ccc(NC(=O)CCc4cccnc4)cc3c(=O)n2C)ccc1F,-0.6,4.7%
CC(C)CC(N)c1csc(Nc2ccccn2)n1 (stereo not given),-0.6,-7.4%
Cc1ccn2c(NCc3ccco3)c(-c3ccccc3)nc2c1,1.0,-26%
COc1ccc(CCn2c(=S)[nH]c(=O)c3nccnc32)cc1OC,-1.0,-0.2%
CCNC(=O)C1(C)CCCN1C(=O)c1c(F)cccc1F (stereo not given),-0.1,-2.9%
CC1=C(C(=O)N(C(C)C)C(C)C)CC(CC(=O)NC2CC2)C(=O)N1Cc1ccc(C(C)(C)C)cc1 (stereo not given),0.0,-5.1%
CN(C)CCCNc1nc2cc(-c3ccc4c(ccn4C)c3)sc2c(=O)n1C,-0.7,4.5%
OC(c1cc(F)cc(Cl)c1)c1ncc(-c2cccc(C(F)(F)F)c2)[nH]1 (stereo not given),1.3,-2.6%
O=C(OC1CC2CC1[C@H]1CCCCN1C2=O)N1CCN(c2ccccc2)CC1 (stereo not given in full),-0.3,0.8%
CC(O)(c1ccccc1)c1nc(-c2cccc(C#N)c2)cs1 (stereo not given),-1.1,0.2%
CCCCOc1ccc(CC(=O)N(C)OC)cc1,-1.1,0.8%
CC(C)C[C@H]1CNC(=O)C(=O)N1C[C@@H]1CCCN1C[C@H](Cc1ccccc1)N1C[C@H](CC(C)C)N(CC2CCCCCC2)C(=O)C1=O,7.0,-0.6%
O=C(c1ccc(-c2ccccc2)cc1)N1CCN(c2ccc3c(c2)C2CC3CCN2C(=O)OCc2ccccc2)CC1 (stereo not given),-0.8,-12%
CCOC(=O)C1(C)CCCN1C(=O)c1ccc(Cl)nc1 (stereo not given),?,-2.9%
COc1ccc(CC(N)c2csc(NC(=O)NCCc3ccccc3)n2)cc1 (stereo not given),1.6,0.4%
COc1ccccc1C(NC(=O)C1CCN(CCOc2ccc(Cl)cc2)CC1)c1ccccn1 (stereo not given),0.0,-2.0%
Cc1ccc(-c2csc(NC(=O)C3CC(=O)N(c4ccc5c(c4)OCCO5)C3)n2)o1 (stereo not given),1.4,0.4%
Cc1ccccc1S(=O)(=O)NC(=O)C1(C)CCN1C(=O)C1(c2ccc(Cl)cc2)CC1 (stereo not given),-0.1,1.7%
COc1ccc(-c2nc3cc(C)c(Br)c(C)n3c2Cc2ccc(C)cc2)cc1OC,-0.8,-1.1%
CCCNC(=O)C1(C)CCN(C(=O)C(c2ccccc2)c2ccccc2)C1 (stereo not given),-0.5,0.7%
COCCCn1cc(CN2CC(N3CCN(Cc4ccccc4F)CC3)CS2(=O)=O)nn1 (stereo not given),0.0,-1.4%
Cc1cc(NC(=O)COC(=O)c2ccccc2OCCOc2ccccc2)ccc1Br,-0.6,-2.0%
Cc1cccc(C(O)c2ncc(-c3ccc(Cl)cc3)[nH]2)c1C (stereo not given),-1.1,-0.3%
CC1(C(=O)NS(=O)(=O)C2CC2)CCCN(C(=O)c2ccco2)C1 (stereo not given),-0.3,0.7%
CCNC(=O)C1CCCN(Cc2cc(C(F)(F)F)ccc2Cl)CC1 (stereo not given),-0.7,0.6%
CCCNC(=O)c1cc(C2CCCCN2C(=O)c2ccc(C#N)cc2)on1 (stereo not given),-0.9,-2.3%
COc1cccc(CCn2c(N)cc(=O)[nH]c2=S)c1OC,-0.4,1.5%
CN1OC[C@@H]2CN(Cc3ccccc3)[C@H](c3ccc(N4CCCCC4)cc3)C[C@@H]21,-0.3,-4.6%
COc1cccc(C(=O)c2ccccc2C(=O)O)c1,-0.2,0.2%
O=C(O)/C=C/c1ccc2ccccc2c1,-0.6,4.0%
CCCC(=O)N(C)c1ccc(/C=C2\C=Cc3ccccc32)cc1,-0.7,-0.6%
Cc1ccc(-c2nc3ccccc3o2)cc1NC(=O)C(C)Oc1ccccc1 (stereo not given),-0.2,5.3%
CN(C)c1ccc(-c2ccc(CCO)cc2)cc1,-0.4,?
O=c1[nH]cc(CCc2ccccc2)c2ncncc12,-0.6,4.1%
COc1ccc(-c2csc(C(C)(O)c3ccc(F)c(F)c3)n2)cc1OC (stereo not given),-0.5,1.5%
O=C(NCc1ccccc1)c1cc(C2CCCCN2S(=O)(=O)c2cccc3cccnc23)on1 (stereo not given),-0.2,-4.2%

# Part of the list above, with values under each structure:
# Second line of a record – TRPML1 agonist | ClpP mod
Cc1ccccc1S(=O)(=O)NC(=O)C1(C)CCN1C(=O)C1(c2ccc(Cl)cc2)CC1 (stereo not given)
 : -0.1 | 1.7%
COc1ccc(-c2nc3cc(C)c(Br)c(C)n3c2Cc2ccc(C)cc2)cc1OC
 : -0.8 | -1.1%
CCCNC(=O)C1(C)CCN(C(=O)C(c2ccccc2)c2ccccc2)C1 (stereo not given)
 : -0.5 | 0.7%
COCCCn1cc(CN2CC(N3CCN(Cc4ccccc4F)CC3)CS2(=O)=O)nn1 (stereo not given)
 : 0.0 | -1.4%
Cc1cc(NC(=O)COC(=O)c2ccccc2OCCOc2ccccc2)ccc1Br
 : -0.6 | -2.0%
Cc1cccc(C(O)c2ncc(-c3ccc(Cl)cc3)[nH]2)c1C (stereo not given)
 : -1.1 | -0.3%
CC1(C(=O)NS(=O)(=O)C2CC2)CCCN(C(=O)c2ccco2)C1 (stereo not given)
 : -0.3 | 0.7%
CCNC(=O)C1CCCN(Cc2cc(C(F)(F)F)ccc2Cl)CC1 (stereo not given)
 : -0.7 | 0.6%
CCCNC(=O)c1cc(C2CCCCN2C(=O)c2ccc(C#N)cc2)on1 (stereo not given)
 : -0.9 | -2.3%
COc1cccc(CCn2c(N)cc(=O)[nH]c2=S)c1OC
 : -0.4 | 1.5%
CN1OC[C@@H]2CN(Cc3ccccc3)[C@H](c3ccc(N4CCCCC4)cc3)C[C@@H]21
 : -0.3 | -4.6%
COc1cccc(C(=O)c2ccccc2C(=O)O)c1
 : -0.2 | 0.2%
O=C(O)/C=C/c1ccc2ccccc2c1
 : -0.6 | 4.0%
CCCC(=O)N(C)c1ccc(/C=C2\C=Cc3ccccc32)cc1
 : -0.7 | -0.6%
Cc1ccc(-c2nc3ccccc3o2)cc1NC(=O)C(C)Oc1ccccc1 (stereo not given)
 : -0.2 | 5.3%
CN(C)c1ccc(-c2ccc(CCO)cc2)cc1
 : -0.4 | ?
O=c1[nH]cc(CCc2ccccc2)c2ncncc12
 : -0.6 | 4.1%
COc1ccc(-c2csc(C(C)(O)c3ccc(F)c(F)c3)n2)cc1OC (stereo not given)
 : -0.5 | 1.5%
O=C(NCc1ccccc1)c1cc(C2CCCCN2S(=O)(=O)c2cccc3cccnc23)on1 (stereo not given)
 : -0.2 | -4.2%

# Additional structures:
SMILES,TRPML1 agonist,ClpP mod
O=S(=O)(c1cccc(F)c1)N1CCN(c2nc(-c3cccs3)nc3ccccc23)CC1,-0.2,?
O=C(COc1ccccc1C(=O)Nc1ccccc1)Nc1ccc(Br)cc1,-0.3,-4.8%
CC(=O)Nc1cncc(-c2cccc(C(=O)NC3CC3)c2)n1,0.1,-11%
c1ccc2c(C(c3nnnn3-c3ccc4c(c3)OCCO4)N3CCCCC3)ccnc2c1 (stereo not given),-0.9,-3.0%
N#Cc1cccc(NC(=O)c2cc(C3CCCCN3S(=O)(=O)c3ccccc3)on2)c1 (stereo not given),-0.3,-3.7%
CC(=O)c1cccc(NC(=O)C2Cc3c(-c4cccc(C(C)=O)c4)ccnc3O2)c1 (stereo not given),-0.8,2.7%
CCN(CC)C(=O)c1cccc(-c2csc(C(C)(NC(C)=O)c3ccccc3)n2)c1 (stereo not given),-0.5,-1.0%
COc1cc(OC)c(-c2nn3c(-c4cc(C)[nH]n4)nnc3s2)cc1OC,-0.9,4.5%
COCCNc1nc(Nc2ccc(Cl)cc2F)c2sccc2n1,-0.5,-25%
CCCCn1nnnc1C(c1ccccc1)N1CCN(c2ccc(C(F)(F)F)cc2[N+](=O)[O-])CC1 (stereo not given),?,-1.6%
O=C(C[n+]1ccccc1Cl)c1cccc([N+](=O)[O-])c1,-0.1,-2.6%
Cn1c(=O)c2cc(NC(=S)NC3CCCCC3)ccc2n1Cc1ccc(F)cc1,-1.0,4.2%
COc1ccccc1-c1ccc2c(c1)C(C)(Cc1ccc(Cl)cc1)C(=O)N2 (stereo not given),0.0,-0.6%
CCc1nc2c(OCc3ccc(Cl)cc3)cccn2c1N(C)C(=O)c1ccc2c(c1)OCO2,-0.7,-0.9%
O=C1NC[C@H](CCCCN2C[C@H](Cc3ccccc3)N(CCc3ccccc3)C(=O)C2=O)N(CCC2CCCCC2)C1=O,-1.0,2.1%
CC1(Oc2cccc(F)c2)CCN(Cc2ccccc2OC(F)F)C1 (stereo not given),-0.5,0.1%
COc1cc(NC(=O)CC[C@H]2O[C@@H](n3cnc4c(NC(=O)c5ccccc5)ncnc43)[C@H](O)[C@@H]2O)cc(OC)c1OC,0.7,-2.4%
CCCn1cnnc1CNC(=O)[C@H]1O[C@@H](n2ccc(N)nc2=O)[C@H](O)[C@@H]1O,0.0,0.1%
CC1(C(=O)NS(=O)(=O)c2ccc(Cl)s2)CCN1C(=O)c1ccccc1CCc1ccccc1 (stereo not given),-0.9,-0.4%
CCOc1ccc(C(CN2CCOCC2)C(C)=O)cc1OC (stereo not given),1.0,-1.7%
CCCC(C)(C)C(=O)N1CCC1(C)C(=O)NS(=O)(=O)c1ccccc1Cl (stereo not given),0.1,1.2%
Cc1ccccc1-c1cnc(C(O)c2ccc(Cl)c(F)c2)[nH]1 (stereo not given),0.5,-0.2%
COc1cc(CN2C[C@@H](CO)O[C@@H](n3cnc4c(NCCN(C)C)ncnc43)C2)cc(OC)c1OC,0.1,-0.3%
CC(O)(c1ccc(F)c(F)c1)c1nc(-c2ccc(S(C)(=O)=O)cc2)cs1 (stereo not given),-0.5,-5.0%
O=C(NCCc1ccccc1)[C@@H]1CC=C[C@@H]2CCN(C3CC3)C(=O)[C@@H]21,-0.6,-0.7%
CCc1nc2c(OCCC3CCCCC3)cccn2c1N(C)C(=O)C1CC1,21,-1.3%
CCC(CO)Nc1ccn2nc(-c3cccs3)cc2n1 (stereo not given),-0.3,4.6%
CCCNC(=O)C1(C)CCCN(C(=O)c2ccc3sccc3c2)C1 (stereo not given),-0.7,1.9%
CCC(CC)C(=O)N(C)c1c(C)nc2c(OCC3CCCCC3)cccn12,-1.3,-1.5%

# High-throughput results (PubChem BioAssay)
